# rRNA inh HTS = inhibits bacterial ribosomal RNA function over humanized ribosomes. GFP signal change (wild-type ribosome), % (no concentration beside the values). E. coli WT GFP vs humanized-ribosome RFP mutants, fluorescence, 24 h; active compounds read low; DMSO median 0, no signal -100. AID 720706. 350,000 compounds, 1.6% hits;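 active = significant combined selectivity score with lowered wild-type GFP, culture density cut under 30%, mutant RFP and density less affected; inactive = any of these conditions unmet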; also: one replicate is shown; some compounds called inactive have numbers as strong as hits
# FGF22 binding = FGF22 (human) thermal shift binding. recombinant FGF22 thermal shift, SYPRO orange fluorescence; percent of sucrose octasulfate shift, DMSO zero. AID 651658. Q9HCT0. calls only at 9.99 µM. 340,000 compounds, 1.5% hits;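 active = melting point raised past a set limit in the mean and every replicate; three in four hits are not shown here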
# Target sequence (Q9HCT0 whole entry, looked up): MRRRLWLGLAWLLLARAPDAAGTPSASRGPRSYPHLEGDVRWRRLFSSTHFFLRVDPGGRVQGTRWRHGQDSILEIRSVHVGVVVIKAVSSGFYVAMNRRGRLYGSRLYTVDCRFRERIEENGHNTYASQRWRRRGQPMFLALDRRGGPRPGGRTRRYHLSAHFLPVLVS
# rRNA inh HTS OD600 = also measured in rRNA inh HTS; calls as there; OD600 change, %; measured here: OD600 growth;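 optical density of the mix in the first replicate; 0 = DMSO median and -100 = no signal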
# rRNA inh HTS RFP = also measured in rRNA inh HTS; calls as there; RFP signal change, %; measured here: RFP humanized mutant strains;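 first replicate; 0 = DMSO median and -100 = no signal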
# * = called active by the depositor; i = inactive; + = active, no number; & = joins results of further samples. The list is partial; count on the stated rates, not on these rows.
rRNA inh HTS	rRNA inh HTS OD600	rRNA inh HTS RFP	FGF22 binding	SMILES
2	4	-0.2	i	C[C@H](NC(=O)C[C@@H]1C=C[C@H](NC(=O)C2CCOCC2)[C@@H](CO)O1)c1ccccc1
-1	1	0.1	i	C[C@@H]1CN([C@@H](C)CO)C(=O)c2cc(C#CC3(O)CCCC3)cnc2O[C@H]1CN(C)C(=O)C1CCOCC1
-2	-10	2.5	i	Cc1cccc(S(=O)(=O)N2C[C@H](O)COC[C@H]3O[C@H](CC(=O)NCc4ccc5c(c4)OCO5)CC[C@@H]32)c1
5	6	-4.9	i	CC(=O)N(C)C[C@@H]1Oc2cc(C#C[C@@H](C)O)ccc2S(=O)(=O)N([C@@H](C)CO)C[C@@H]1C
-1	4	1.4	i	CCCN(C)C[C@@H]1Oc2cc(-c3ccc(OC)cc3)ccc2S(=O)(=O)N([C@@H](C)CO)C[C@@H]1C
-2	0	0.8	i	CC(=O)Nc1ccc2c(c1)C(=O)N(C)[C@@H]1CC[C@@H](CC(=O)N3CCc4ccccc4C3)O[C@H]1CO2
-3	-1	0.0	i	CC(C)NC(=O)N(C)C[C@H]1Oc2ccc(NC(=O)Nc3ccc(F)cc3)cc2CC(=O)N([C@H](C)CO)C[C@@H]1C
-2	-9	2.0	i	O=C(C[C@H]1CC[C@@H]2[C@H](COC[C@@H](O)CN2C(=O)c2ccccc2F)O1)N1CCN(c2ccccc2)CC1
-1	-15	1.1	i	COc1ccc(-c2ccc([C@H]3[C@@H](C#N)N(C(=O)NC4CCCCC4)[C@H]3CO)cc2)cc1
-1	4	1.8	i	C[C@@H]1CN([C@@H](C)CO)S(=O)(=O)c2ccc(C#CCC3CCCC3)cc2O[C@@H]1CN(C)C(=O)CC1CC1
0	-2	-1.0	i	Cc1ccccc1S(=O)(=O)N1[C@@H](C#N)[C@@H](c2ccc(C#CC3CCCCC3)cc2)[C@@H]1CO
-3	-6	3.6	i	COc1ccc(NC(=O)Nc2ccc3c(c2)C(=O)N([C@@H](C)CO)C[C@@H](C)[C@@H](CN(C)Cc2ccc(Cl)c(Cl)c2)O3)cc1
6	6	-3.3	i	CNC[C@H]1Oc2ncc(C#Cc3ccccc3F)cc2C(=O)N([C@@H](C)CO)C[C@H]1C
2	12	-1.8	i	COC(=O)[C@@H]1[C@@H](CO)[C@@H]2Cn3c(ccc(-c4ccc(F)cc4)c3=O)[C@@H]2N1C(=O)C1CC1
1	-5	2.5	i	Cc1ccc(-c2ccc3c(c2)O[C@@H](CN(C)C(=O)Nc2ccc(F)cc2)[C@H](C)CN([C@@H](C)CO)S3(=O)=O)cc1
4	7	0.1	i	COc1ccc(CN(C)C[C@@H]2Oc3ccc(NC(=O)CCN4CCOCC4)cc3CC(=O)N([C@H](C)CO)C[C@H]2C)cc1
1	-4	-0.2	i	CCCNC(=O)N1C[C@H]2[C@@H](c3ccccc31)[C@@H](CO)N2C(=O)Nc1ccccc1
5	16	-1.0	i	COc1ccc2c3c(n(C)c2c1)[C@@H](CO)N(C(=O)c1ccncc1)CC31CCN(CC2CC2)CC1
-1	6	0.0	i	Cc1ccc(-c2cnc3c(c2)C(=O)N([C@@H](C)CO)C[C@H](C)[C@H](CN(C)C(=O)Cc2cccnc2)O3)cc1
-3	-7	0.0	i	C[C@H]1CN([C@@H](C)CO)S(=O)(=O)c2ccc(C#Cc3ccncc3)cc2O[C@@H]1CN(C)C(=O)C1CCOCC1
-1	-5	1.3	i	CCCN1C[C@@H](C)[C@H](OC)CN(C)C(=O)c2cc(NC(=O)Nc3ccccc3F)ccc2OC[C@@H]1C
16	13	1.2	i	CCCN1C(=O)c2n[nH]c(C(C)C)c2C1c1cccc(C(F)(F)F)c1 (stereo not drawn)
-5	0	-0.3	i	Cn1cnc(CCNC(=O)C[C@H]2CC[C@@H]3[C@H](COC[C@@H](O)CN3C(=O)Nc3ccc(Cl)cc3)O2)c1
-5	-19	-1.2	i	COc1ccc2c3c(n(C)c2c1)[C@@H](CO)N(Cc1ccccc1)CC31CN(C(=O)c2ccccc2F)C1
-3	1	4.7	i	C[C@@H]1CN([C@@H](C)CO)C(=O)Cc2cc(NS(=O)(=O)c3cccs3)ccc2O[C@H]1CN(C)Cc1ccc(Cl)c(Cl)c1
4	10	-0.8	i	CN1C(=O)c2cc(NC(=O)c3ccc(F)cc3)ccc2OC[C@H]2O[C@H](CC(=O)N3CCOCC3)CC[C@H]21
-1	-1	-1.2	i	C[C@@H]1CN([C@H](C)CO)C(=O)c2cc(-c3cccnc3)cnc2O[C@H]1CN(C)C(=O)NC1CCCC1
-13	-26	-3.1	i	C[C@@H]1CN([C@H](C)CO)C(=O)c2cccc(NC(=O)C3CC3)c2O[C@H]1CN(C)Cc1ccc(Cl)c(Cl)c1
1	3	-3.1	i	C[C@H]1CN([C@@H](C)CO)C(=O)c2cc(NS(=O)(=O)c3cccs3)ccc2O[C@@H]1CN(C)Cc1ccc(C(=O)O)cc1
-2	1	1.4	i	O=C(NCC[C@@H]1CC[C@H](NS(=O)(=O)c2cccc(F)c2)[C@H](CO)O1)C1CCCCC1
3	2	-1.5	i	CO[C@@H]1CN(C)C(=O)c2cc(NC(=O)c3cnccn3)ccc2OC[C@H](C)N(CC2CC2)C[C@@H]1C
-2	-2	-4.3	i	C[C@@H]1CN([C@H](C)CO)C(=O)c2cc(NC(=O)NC3CCCCC3)ccc2O[C@@H](C)CCCCO[C@H]1CN(C)C(=O)Nc1ccccc1
-1	4	1.3	i	CCC(=O)N1[C@H](CO)[C@H](c2ccc(-c3ccc(F)cc3)cc2)C12CN(C(C)=O)C2
4	12	-2.3	i	Cc1ccc(S(=O)(=O)N(C)C[C@H]2Oc3c(NC(=O)c4nc5ccccc5s4)cccc3C(=O)N([C@@H](C)CO)C[C@@H]2C)cc1
0&11	1&12	-0.4&0.9	i	C[C@H](CO)N1C[C@H](C)[C@@H](CN(C)C(=O)NC2CCCCC2)OCc2cn(nn2)CCCC1=O
4	-4	-0.6	i	CC(C)NC(=O)Nc1ccc2c(c1)C(=O)N([C@H](C)CO)C[C@@H](C)[C@@H](CN(C)Cc1ccc(C(F)(F)F)cc1)O2
-4	8	-3.5	i	O=C(C[C@@H]1CC[C@@H]2[C@H](COC[C@@H](O)CN2C(=O)C2CC2)O1)NCc1ccccc1Cl
2	-1	2.0	i	CCC(=O)N[C@H]1CC[C@@H](CCn2cc(CN(C)C)nn2)O[C@@H]1CO
-2	-13	4.2	i	COc1ccc(S(=O)(=O)Nc2ccc3c(c2)C(=O)N([C@@H](C)CO)C[C@@H](C)[C@@H](CN(C)S(=O)(=O)c2ccc(OC)cc2)O3)cc1
4	1	-1.4	i	COc1ccc(NC(=O)N(C)C[C@@H]2Oc3ccc(NC(=O)Nc4ccc(C(F)(F)F)cc4)cc3C(=O)N([C@H](C)CO)C[C@@H]2C)cc1
-1	-1	0.2	i	O=C(Nc1ccc(F)cc1)N[C@H]1CC[C@H](CCn2cc(-c3ccc(F)cc3)nn2)O[C@@H]1CO
5	0	-1.8	i	CO[C@H]1CN(C)C(=O)c2ccc(NC(=O)c3ccno3)cc2OC[C@H](C)N(C(=O)C2CCC2)C[C@H]1C
2	4	-1.9	i	Cc1noc(C)c1S(=O)(=O)N(C)C[C@H]1Oc2ccc(NC(=O)Cn3cnnn3)cc2CC(=O)N([C@@H](C)CO)C[C@@H]1C
1	13	-2.0	i	COc1ccc2c3c(n(C)c2c1)[C@@H](CO)N(C(=O)NC(C)C)CC31CN(C(=O)NC(C)C)C1
0	-2	-5.9	i	c1cc(-c2ccc(C3[C@@H]4CN(Cc5nccs5)C[C@H]3N4)cc2)ccn1 (stereo partly drawn)
0	3	-0.1	i	COc1ccc2c3c(n(C)c2c1)[C@H](CO)N(Cc1ccccn1)CC31CCN(C(=O)NC(C)C)CC1
5	2	-1.1	i	CCS(=O)(=O)Nc1ccc2c(c1)C(=O)N(C)[C@H]1CC[C@@H](CC(=O)N3CCCCC3)O[C@@H]1CO2
0	3	0.0	i	CO[C@H]1CN(C)C(=O)c2cc(NC(=O)C3CCOCC3)ccc2OC[C@@H](C)NC[C@@H]1C
-3	-5	0.2	i	COc1ccc(NC(=O)N(C)C[C@@H]2OCCCC[C@@H](C)Oc3ccc(NC(=O)C4CCCCC4)cc3C(=O)N([C@H](C)CO)C[C@H]2C)cc1
1	-19	13	i	O=C(CN1CCOCC1)N1CCCCN2[C@H](C1)[C@@H](c1ccc(C#Cc3ccccc3F)cc1)[C@@H]2CO
-1	-1	0.2	i	COc1ccccc1NC(=O)Nc1ccc2c(c1)OC[C@@H](C)N(Cc1ccccc1C(=O)O)C[C@@H](C)[C@H](OC)CN(C)C2=O
2	-2	2.7	i	O=C(C[C@H]1CC[C@H](NS(=O)(=O)c2cccc(F)c2)[C@@H](CO)O1)NCc1ccc2c(c1)OCO2
2	-3	1.5	i	CCCNC(=O)Nc1ccc2c(c1)OC[C@H](C)N(C(=O)C1CCCCC1)C[C@H](C)[C@H](OC)CN(C)C2=O
-61	-78	-14	i	O=C(C1CCCCC1)N1[C@H](CO)[C@@H](c2ccccc2)C12CN(Cc1cccc(Cl)c1)C2
-13	-8	-5.0	i	C[C@@H]1CN([C@H](C)CO)C(=O)c2cccc(NC(=O)CCCCCC(=O)Nc3ccccc3N)c2O[C@H]1CN(C)Cc1ccccc1
4	8	-4.2	i	CC(C)[C@H](C)NC(=O)N(C)C[C@H]1OCc2ccccc2-c2ccccc2C(=O)N([C@H](C)CO)C[C@H]1C
-1	-1	-0.8	i	C[C@@H]1CN([C@H](C)CO)C(=O)c2ccccc2-c2ccccc2CO[C@H]1CN(C)C(=O)NC1CCCCC1
4	8	-2.5	i	C[C@@H]1CN([C@H](C)CO)S(=O)(=O)c2ccc(-c3cccnc3)cc2O[C@@H]1CN(C)C(=O)C1CCC1
-2	-1	0.7	i	COc1ccc(S(=O)(=O)N2CC[C@@H]3[C@H](CO)Nc4ccc(-c5ccccc5F)cc4[C@@H]32)cc1
6	14	2.9	i	C[C@@H]1CN([C@H](C)CO)C(=O)c2cccc(NC(=O)c3nc4ccccc4s3)c2O[C@H]1CN(C)Cc1ccc(Oc2ccccc2)cc1

# (list continues)
rRNA inh HTS	rRNA inh HTS OD600	rRNA inh HTS RFP	FGF22 binding	SMILES
-2	2	0.6	+	C[C@@H]1CCCCO[C@H](CN(C)C(=O)C2CCCCC2)[C@H](C)CN([C@H](C)CO)C(=O)c2cc(NS(C)(=O)=O)ccc2O1
-4	-1	-0.8	i	CN(C[C@@H]1[C@@H](c2ccccc2)[C@H](CO)N1CC1CC1)C(=O)c1ccc(F)cc1
-2	1	-1.3	i	CN1CCN(C(=O)C[C@H]2C=C[C@@H](NC(=O)Nc3ccccc3F)[C@H](CO)O2)CC1
2	3	-0.4	i	C[C@@H]1CCCCO[C@H](CN(C)C(=O)Nc2ccc(F)cc2)[C@@H](C)CN([C@H](C)CO)C(=O)c2cc(NS(=O)(=O)c3cn(C)cn3)ccc2O1
-8	-11	0.2	i	C[C@@H](NC(=O)C[C@@H]1C[C@H]2c3cc(NC(=O)c4ccc5c(c4)OCO5)ccc3O[C@H]2[C@H](CO)O1)c1ccccc1
-3	-4	5.1	i	CC(C)CC#Cc1ccc2c(c1)O[C@@H](CN(C)C(=O)Cc1cccnc1)[C@@H](C)CN([C@H](C)CO)S2(=O)=O
-1	-1	-1.5	i	C[C@H](CO)N1C[C@H](C)[C@H](CN(C)C(=O)Nc2ccccc2)Oc2c(NS(=O)(=O)c3ccc(F)cc3)cccc2C1=O
2	18	0.5	i	C[C@@H]1CN([C@H](C)CO)C(=O)c2cc(-c3cccnc3)cnc2O[C@H]1CN(C)C
-6	-28	-1.1	i	CO[C@H](CN(C)Cc1cc(F)ccc1F)[C@H](C)CN([C@@H](C)CO)S(=O)(=O)c1ccc(C)cc1
4	16	-2.2	i	C[C@@H]1CN([C@H](C)CO)C(=O)c2cccc(NS(=O)(=O)c3ccc(F)cc3)c2O[C@H]1CN(C)C(=O)Nc1ccc(F)cc1

# An excerpt from above in order of count of non-hydrogen atoms, smallest number first.
rRNA inh HTS	rRNA inh HTS OD600	rRNA inh HTS RFP	FGF22 binding	SMILES
2	18	0.5	i	C[C@@H]1CN([C@H](C)CO)C(=O)c2cc(-c3cccnc3)cnc2O[C@H]1CN(C)C
-2	1	-1.3	i	CN1CCN(C(=O)C[C@H]2C=C[C@@H](NC(=O)Nc3ccccc3F)[C@H](CO)O2)CC1
-6	-28	-1.1	i	CO[C@H](CN(C)Cc1cc(F)ccc1F)[C@H](C)CN([C@@H](C)CO)S(=O)(=O)c1ccc(C)cc1
-3	-4	5.1	i	CC(C)CC#Cc1ccc2c(c1)O[C@@H](CN(C)C(=O)Cc1cccnc1)[C@@H](C)CN([C@H](C)CO)S2(=O)=O
-8	-11	0.2	i	C[C@@H](NC(=O)C[C@@H]1C[C@H]2c3cc(NC(=O)c4ccc5c(c4)OCO5)ccc3O[C@H]2[C@H](CO)O1)c1ccccc1
-1	-1	-1.5	i	C[C@H](CO)N1C[C@H](C)[C@H](CN(C)C(=O)Nc2ccccc2)Oc2c(NS(=O)(=O)c3ccc(F)cc3)cccc2C1=O
4	16	-2.2	i	C[C@@H]1CN([C@H](C)CO)C(=O)c2cccc(NS(=O)(=O)c3ccc(F)cc3)c2O[C@H]1CN(C)C(=O)Nc1ccc(F)cc1
6	14	2.9	i	C[C@@H]1CN([C@H](C)CO)C(=O)c2cccc(NC(=O)c3nc4ccccc4s3)c2O[C@H]1CN(C)Cc1ccc(Oc2ccccc2)cc1
2	3	-0.4	i	C[C@@H]1CCCCO[C@H](CN(C)C(=O)Nc2ccc(F)cc2)[C@@H](C)CN([C@H](C)CO)C(=O)c2cc(NS(=O)(=O)c3cn(C)cn3)ccc2O1

# From PubChem
